Cruzain Triton: inhibitors of Trypanosoma cruzi cruzain with detergent; Potency, µM, for inactives: max response, negative = inhibition, actives largely listed as inhibitors; 200,000 tested, 0.43% active; P25779; purified cruzain, Z-FR-AMC fluorescence, 0.01% Triton; AID 1478;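 note: plate controls were neutral wells for no effect and buffer without enzyme for full effect; nearly all actives have a fitted effect of over 40% in size; top concentration of the series not given in the record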
Target sequence (P25779 123-467 limits assumed): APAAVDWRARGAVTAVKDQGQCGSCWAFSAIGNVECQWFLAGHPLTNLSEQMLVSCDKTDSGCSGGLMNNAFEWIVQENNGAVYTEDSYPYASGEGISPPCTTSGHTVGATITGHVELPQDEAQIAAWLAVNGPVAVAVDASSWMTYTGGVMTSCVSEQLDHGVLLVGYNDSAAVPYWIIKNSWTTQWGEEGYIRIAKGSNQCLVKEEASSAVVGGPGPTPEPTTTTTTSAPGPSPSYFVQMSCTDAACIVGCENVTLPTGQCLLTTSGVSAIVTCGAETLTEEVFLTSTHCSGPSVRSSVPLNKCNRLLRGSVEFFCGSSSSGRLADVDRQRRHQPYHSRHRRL
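Z-FR-AMC hydrolysis (2 uM substrate) by cruzain (1.5 nM) monitored kinetically at ex 360/em 450 nm after 15 min room-temperature compound exposure; 0.01% Triton X-100, pH 5.5, 5 mM DTT.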
Marburg entry inh: Marburg virus entry inhibition. Marburg virus pseudotyped entry inhibition, cell reporter; control for the full effect not named in the record; about a third of the inactives were read at about 46 µM. Potency, µM (doses to about 37.8 µM), for inactives: top-dose activity change, negative = inhibition, usual class: inhibitors. 300,000 tested, 1.8% active. AID 540276; active = well fitted inhibition curve with a large enough effect; inconclusive = small, poorly fitted or top-dose-only effect, or effect the other way; inactive = flat fitted curve, though single readings scatter; tested in HEK293 cells; about a fifth of its hits are not listed in these tables; note: % is set by controls: 0 for no effect and ±100 for the full control effect; luciferase read-out
StopGo reporter: lowers the luciferase signal of an FMDV 2A StopGo reporter. Potency, µM (series often up to 57.9 µM), inactives show at the top dose signal change, negative = less light. 410,000 tested, 1.2% active. human cells with a luciferase reporter of 2A StopGo recoding; control for the full effect not named in the record; active = well fitted falling curve with a large enough effect; inconclusive = small, poorly fitted or top-dose-only effect; inactive = no such curve, though single readings can be large or run the other way; tested in HEK293T cells; note: % is set by controls: 0 for no effect and ±100 for the full control effect; nearly all actives have a fitted effect of over 45% in size; luciferase light after 4 h
Lassa entry inh: blocks Lassa virus binding to or entry into cells; Lassa virus pseudotype entry inhibition, cell reporter; control for the full effect not named in the record; Potency, µM (top dose mostly 37.9 µM), without a hit: top-dose activity change, negative = inhibition, actives largely listed as inhibitors; 300,000 tested, 1.2% active; active means well fitted inhibition curve with a large enough effect; inconclusive means small, poorly fitted or top-dose-only effect, or effect the other way; inactive means flat fitted curve, though single readings scatter; tested in HEK293 cells; note: % is set by controls: 0 for no effect and ±100 for the full control effect; nearly all actives have a fitted effect of over 50% in size; luciferase read-out
RE007 growth inh: less growth of the S. pombe RE007 Vpr strain. S. pombe RE007 Vpr strain, BacTiter-Glo ATP luminescence, 24 h; control for the full effect not named in the record. Potency, µM (highest dose often 92.2 µM), for inactives: at the highest dose activity change, negative = less growth. 360,000 tested, 0.21% active; active = well fitted falling curve with a large enough effect; inconclusive = small, poorly fitted or top-dose-only effect; inactive = no such curve, though single readings can be large or run the other way;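 note: % is set by controls: 0 for no effect and ±100 for the full control effect; nearly all actives have a fitted effect of over 50% in size; the assay follows cell death caused by Vpr and the record does not say whether a fall means rescue or toxicity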
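Fission yeast RE007 carrying one integrated HIV-1 vpr copy, seeded at OD 0.01 in PMG+AL medium with 23 nL pinned compound. Grown 24 h at 30 degrees; viability read by BacTiter-Glo luminescence after 5 min.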
Cruzain noTriton: inhibitors of Trypanosoma cruzi cruzain without detergent; P25779; purified cruzain, Z-FR-AMC fluorescence, no detergent; 200,000 tested, 2.3% active; Potency, µM, inactives show max response, negative = inhibition, actives largely listed as inhibitors;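 note: plate controls were enzyme without inhibitor for no effect and buffer without enzyme for full effect; nearly all actives have a fitted effect of over 40% in size; top concentration of the series not given in the record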
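Detergent-free condition (0.00005% Triton X-100) in acetate buffer pH 5.5 with DTT. 1.5 nM enzyme and compound were pre-mixed 15 min, then 2 uM Z-FR-AMC substrate added; reaction progress from fluorescence change between first and third reads (60 s).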
NS1 inh: inhibitors of influenza NS1 protein function; S. cerevisiae slowed by influenza A NS1, growth recovery by OD600; Potency, µM (top dose mostly 46.1 µM), for inactives: top-dose activity, positive = more growth; 270,000 tested, 0.4% active; active means well fitted rising curve with a large enough effect; inconclusive means small, poorly fitted or top-dose-only effect; inactive means no such curve, though single readings can be large or run the other way; note: nearly all actives have a fitted effect of over 50% in size
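Growth recovery, yeast-based: influenza A NS1 expressed in S. cerevisiae causes slow growth, and suppressors are detected by OD600. The parent strain without NS1 is used as positive control.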
SARS PLP yeast: inhibitors of SARS-CoV papain-like protease in yeast; Potency, µM (doses to about 32.9 µM), for inactives: top-dose activity, positive = growth rescue; S. cerevisiae expressing SARS-CoV PLpro, growth rescue; control for the full effect not named in the record; 330,000 tested, 0.19% active; AID 485353; active means well fitted rising curve with a large enough effect; inconclusive means small, poorly fitted or top-dose-only effect; inactive means no such curve, though single readings can be large or run the other way; note: 0% is about no effect; nearly all actives have a fitted effect of over 55% in size; growth read by luminescence after 48 h
* hit, by the source's call; ? = inconclusive; / = not tested or not shown; & = joins results of further samples; [ ] = dose if it differs, or a comment. Unless noted, calls come from the whole dose curve; as a rule, active = well fitted curve in the direction sought with a large enough effect; inconclusive = small, poorly fitted or top-dose-only effect, or another doubt; inactive = no such curve, though single readings can be large; an effect the other way counts as inactive or inconclusive. Potency is the fitted concentration of half-maximal effect. Hits appear at their usual frequency (roughly 4.5% active in at least one column).

SMILES | Cruzain Triton | Marburg entry inh | StopGo reporter | Lassa entry inh | RE007 growth inh | Cruzain noTriton | NS1 inh | SARS PLP yeast
CCCCN(C(=O)CCC(=O)Nc1cc(C)on1)C(C(=O)NC(C)(C)C)c1cccc(OC)c1OC (configuration not stated) | -0.3% | ? | -8% | 26% | -1% | ? | -2% | -4%
Cc1cc[n+](CC(=O)N2CCCc3ccccc32)cc1 | / | ? | -6% | 5% | 10% | / | / | 1%
O=C(CSc1nc2ccccc2c(=O)n1-c1ccc(F)cc1F)Nc1ccc2c(c1)CCC2 | 3.6% | ? | -14% | ? | 5% | ? | 13µM* | 6%
O=C(CCc1nnc(C2CCCCC2)o1)N1CCC(Oc2cccnc2)CC1 | / | -18%[46.1 µM] | -19% | -9%[46.1 µM] | 10% | / | 0% | -2%
C=Cc1ccc(Cn2c(=O)n(CCCOC)c(=O)c3sccc32)cc1 | / | / | ? | / | 29% | / | -8% | -5%
COCCNC(=O)C1c2ccccc2C(=O)N(CCOC)C1c1ccc(F)cc1 (configuration not stated) | 0.9% | 0%&0% | -18% | -22% | 11% | 20% | 1% | -1%
O=C(O)c1c2c(nc3ccc(S(=O)(=O)N4CCC(C(=O)NCc5ccccc5Cl)CC4)cc13)CCCC2 | / | / | -11% | / | -14% | / | 15% | 0%
O=c1[nH]c2ccccc2nc1/C=C(\O)C1CC1 | -2.3% | 15% | 49%[activator] | ? | -4% | 0% | 23% | -19%
COc1ccc(N2CCN(CC(=O)c3ccc(O)cc3O)CC2)cc1 | / | -1%[46.1 µM] | -3% | 1% | -2% | / | 7% | -18%
COc1ccc(S(=O)(=O)NCc2cccnc2)cc1NC(=O)c1ccc(C)cc1 | / | 4% | 47%[activator] | -12%[46.1 µM] | 17% | / | / | 2%
Cc1nc2ccc(NC(=O)C3COc4ccccc4O3)cc2s1 (configuration not stated) | / | / | 21% | / | 0% | / | 0% | -5%
COc1cccc(CN(C(=O)c2oc3ccc(Br)cc3c2C)C2CCS(=O)(=O)C2)c1 (configuration not stated) | -5.9% | ? | ? | ? | / | 17% | / | /
COc1cc(OC)cc(C(=O)N2c3ccc(F)cc3CCC2C)c1 (configuration not stated) | 1.4% | -6%[46.1 µM] | -29% | -3% | -2% | -5% | -14% | 0%
CN1CCN(C(=O)/C(C#N)=C/c2ccc(F)cc2)CC1 | / | -5%[46.1 µM] | 3% | / | 46% | / | / | 4%
O=c1cc(CSc2ccccn2)nc(N2CCN(c3ccccc3)CC2)[nH]1 | 12% | -4% | 0% | 1% | 5% | 0% | 0% | 2%
CCCC(C(=O)NCCC(C)C)N(Cc1ccc(F)cc1)C(=O)c1snc(C(N)=O)c1N (configuration not stated) | / | / | 0% | / | 8% | / | -1% | 0%
CCOc1ccc(CCNC(=O)Cn2nnc(-c3ccccc3)n2)cc1OCC | -4.6% | 12%[46.1 µM] | -8% | -3%[46.1 µM] | / | 20% | / | /
COc1cc2c(cc1OC)/C(=C/C(=O)c1ccc(OC)c([N+](=O)[O-])c1)NCC2 | / | ? | ? | ? | 22% | / | 4% | -1%
O=C1c2ccccc2S(=O)(=O)N1CCCN1C(=O)c2ccccc2S1(=O)=O | / | -15% | -6% | 19% | 5% | / | / | /
COc1ccc(CNC(=O)Cc2nn(C)c(=O)c3ccccc23)cc1 | -1.4% | ? | 16µM* | -24% | 0% | -14% | -22% | 6%
Cc1ccc(C)c(NC(=O)CSc2nnc(-c3ccco3)o2)c1 | 0.3% | 11% | -4% | 12% | 0% | -22% | 7% | 1%
COc1cccc(/C=N/NC(N)=S)c1OCc1ccccc1Cl | -19% | ? | ? | 12% | 15% | ? | 5% | ?
CCN(CC)C(=O)c1ccc(-c2nnc(Nc3ccc(C(=O)N(C)C)cc3)c3ccccc23)cc1 | / | / | -28% | / | -3% | / | -21% | -9%
COc1cc(/C=N/OCC(=O)Nc2cc(C)cc(C)c2)ccc1OCc1ccc(Cl)cc1 | -2.7% | ? | 24% | ? | 0% | ? | 2% | -5%
CNC(=O)CN1C(=O)c2cccc3cccc1c23 | -1.4% | -13% | -23% | 5% | 9% | -5% | 3% | 4%
COc1ccccc1Cn1ccn(CC(=O)Nc2c(C)cc(C)cc2C)c(=O)c1=O | -1.7% | / | 0% | ? | / | 7% | / | /
O=C1C=Cc2cccc3ccc(O)c1c23 | / | -18%[46.1 µM] | 9% | -3%[46.1 µM] | ? | / | / | /
COCCCNC(=O)Cc1c(C)c2c(cc(C)c3c(C(C)(C)C)coc32)oc1=O | / | / | -16% | / | -11% | / | 9% | 0%
CCOc1ccc(-c2c(C)nn3c(C)c(C(=O)NCCN(C)C)cnc23)cc1OCC | -3.2% | / | -12% | -1%[46.1 µM] | / | -8% | / | /
COC(=O)C1=C(C)N(C)C(=O)NC1c1ccc(C)cc1 (configuration not stated) | 3.7% | ? | 6% | -15% | 11% | 4% | -1% | -4%

Another view of two compounds above.
Molecule	Cruzain Triton	Marburg entry inh	StopGo reporter	Lassa entry inh	RE007 growth inh	Cruzain noTriton	NS1 inh	SARS PLP yeast
CCCC(C(=O)NCCC(C)C)N(Cc1ccc(F)cc1)C(=O)c1snc(C(N)=O)c1N (configuration not stated)	/	/	0%	/	8%	/	-1%	0%
CCOc1ccc(CCNC(=O)Cn2nnc(-c3ccccc3)n2)cc1OCC	-4.6%	12%[46.1 µM]	-8%	-3%[46.1 µM]	/	20%	/	/

New compounds follow
SMILES | Cruzain Triton | Marburg entry inh | StopGo reporter | Lassa entry inh | RE007 growth inh | Cruzain noTriton | NS1 inh | SARS PLP yeast
O=C(CSc1nnnn1-c1ccccc1)N1N=CCC1c1ccccc1 (configuration not stated) | 1.3% | 21% | 30%[activator] | 1% | 11% | 0% | 3% | -6%
CSc1cccc(NC(=O)CN2C(=O)CCc3cc(S(=O)(=O)N4CCCCC4)ccc32)c1 | -4.4% | / | 6% | ? | / | -7% | / | /
CCCOc1ccc2c(=O)c(N3C(=O)c4ccccc4C3=O)c(C)oc2c1 | -3.0% | 33% | -1% | -1% | 6% | 6% | -6% | -25%
COc1ccc(S(=O)(=O)NC2CC2)cc1C(=O)N1CCOCC1 | / | 20%[46.1 µM] | -12% | -3% | -2% | / | 6% | 0%
COc1cc(Br)c(CC(=O)O)cc1OC | 4.6% | -6% | 4% | 17% | 34% | 10% | -11% | 7%
COc1ccc(CN2C(=O)c3cccnc3C2Nc2ccc(OC)c(Cl)c2)cc1 (configuration not stated) | -6.6% | -22% | -2% | -7% | 18% | -2% | -1% | -12%
COCCNS(=O)(=O)c1cc(C(=O)O)ccc1OC | / | -1%[46.1 µM] | -6% | 1% | -6% | / | / | -1%
CC(Oc1ccc(Cl)cc1Cl)C(=O)Nn1cnnc1 (configuration not stated) | -0.8% | -4% | 4% | 2% | -1% | -7% | 7% | 18%
O=C(O)c1cc(N2C(=O)CCC2=O)ccc1Cl | / | -5% | 5% | 10% | -13% | / | 15% | 0%
Cc1ccc2nc(NC(=O)CSc3nccn3Cc3ccc(Cl)cc3)sc2c1 | -6.9% | / | 17% | 10%[46.1 µM] | / | -12% | / | /
COc1ccc2oc(=O)c(C(=O)NC3CCCCCC3)cc2c1 | / | 14% | 48%[activator] | -7% | -18% | / | 10% | -1%
Fc1ccccc1OCCCCCN1CCCC1 | -0.2% | ? | -8% | 0% | -14% | 1% | 6% | 2.5µM*
CC1=[N+](C)N(c2ccccc2)C(=O)C1N=Cc1ccc(Cl)cc1 (configuration not stated) | 2.2% | 23% | -4% | 18% | 0% | 14% | 2% | 4%
CCn1c(=O)n(CC)c2cc(N3CCCC3)c(NC(=O)c3ccccc3Br)cc21 | / | / | -28% | / | -13% | / | 4% | -6%
Cc1ccc(OCC(=O)NNC(=O)C2CC(=O)N(c3ccc4c(c3)OCCO4)C2)cc1 (configuration not stated) | / | / | -10% | ? | -4% | / | / | -3%

Looked up above:
Cc1nc2ccc(NC(=O)C3COc4ccccc4O3)cc2s1 (configuration not stated) in SARS PLP yeast reads -5%
COc1ccc(S(=O)(=O)NC2CC2)cc1C(=O)N1CCOCC1 in NS1 inh reads 6%
COc1cc(OC)cc(C(=O)N2c3ccc(F)cc3CCC2C)c1 (configuration not stated) in Cruzain noTriton reads -5%
COc1cc(/C=N/OCC(=O)Nc2cc(C)cc(C)c2)ccc1OCc1ccc(Cl)cc1 in Cruzain Triton reads -2.7%
Cc1ccc2nc(NC(=O)CSc3nccn3Cc3ccc(Cl)cc3)sc2c1 in Lassa entry inh reads 10%[46.1 µM]
Cc1ccc(C)c(NC(=O)CSc2nnc(-c3ccco3)o2)c1 in SARS PLP yeast reads 1%
COc1cc(Br)c(CC(=O)O)cc1OC in NS1 inh reads -11%

Following part:
SMILES | Cruzain Triton | Marburg entry inh | StopGo reporter | Lassa entry inh | RE007 growth inh | Cruzain noTriton | NS1 inh | SARS PLP yeast
O=C(CCSc1nnc2scc(-c3ccccc3)n12)NCc1ccc2c(c1)OCO2 | -2.6% | ? | 16% | 6% | 1% | -2% | -12% | -7%
COc1cc(CNC(=O)CCCCCCC(C)C)ccc1O | -7.0%&-1.4% | ? | -13% | -1% | 4% | 10% | -54% | /
Cc1ccccc1C(=O)Nc1nnc(S(=O)(=O)N2CCCCC2)s1 | / | / | -5% | / | 6% | / | 9% | 3%
Cc1ccc(Cl)cc1NC(=O)CSc1nc(C)c(C)c(C)c1C#N | -1.3% | -34%[46.1 µM] | -26% | -3%[46.1 µM] | / | -5% | / | /
COc1ccc(C(C(=O)NCC2CCCO2)N(Cc2ccccc2)C(=O)CNC(=O)c2ccco2)cc1OC (configuration not stated) | / | 26%[46.1 µM] | -7% | -1% | -3% | / | 0% | 1%
Cc1oc(-c2ccc(Cl)cc2)nc1CN1CCC(C(=O)NCc2ccco2)CC1 | -0.7% | ? | 0% | -2% | -13% | 3% | -2% | -3%
CCC(=O)Nc1ccc(C(=O)Nc2ccc3c(c2)OCO3)cc1 | 4.8% | 4% | 17% | 7% | 31% | 0% | -8% | -1%
COc1cc(OC)c(OC)cc1CN1CCc2ccccc2C1 | 12% | ? | / | 7% | 8% | -2% | -6% | 5%
COCCC(=O)N1CCCC(CNS(=O)(=O)c2ccc(OC)cc2)C1 (configuration not stated) | / | / | -6% | / | 1% | / | 0% | 0%
